Screens from PubChem BioAssay.
Calb FLC – affects C. albicans growth with fluconazole; C. albicans CaCi-2 (fluconazole-resistant clinical isolate) + fluconazole, Alamar Blue growth, 48 h; growth inhibition, % (test concentration not listed); hit rate 0.57% among 300,000; AID 1979;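 active means most replicates above 75%; inconclusive means exactly half above 75%; inactive means most below 75%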;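 further: all wells also contain fluconazole at 8 µg/ml as a sub-toxic cotreatment; 0% = median of DMSO wells and 100% = median of geldanamycin control wells; wells of about 8 µL received 7.5 nL stock; the first replicate is given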
Beta apoptosis – beta cell apoptosis inhibition; INS-1E cytokine-induced death, ATP luminescence, 48 h; percent of positive-control rescue, neutral wells zero; protection from apoptosis, % (test concentration not listed); hit rate 0.8% among 300,000; AID 435005;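 active means all replicates at 75% or more, or half of them and the mean; inconclusive means half reach 75% but not the mean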;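 further: 0% = cytokine-treated negative control wells and 100% = positive control rescue; higher means more ATP so stronger rescue from cytokine killing; wells of about 40 µL received 100 nL stock; the first replicate is given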
AF4-AF9 inh – MLL-AF4/AF9 protein interaction inhibition. P42568. hit rate 0.47% among 350,000. AlphaScreen, biotin-AF4 peptide binding to FLAG-AF9. inhibition, % at 10 µM;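 active means every replicate reaching a set inhibition limit, whatever the replicate mean, cut at about 25% in these data; inconclusive means mean inhibition reaches that limit but some replicates miss it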;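 further: 0% = plate neutral control median and 100% = total signal loss; the record names both 10 and 1 µM as test concentration; the first replicate is given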
Bfl-1 A1 inh – inhibitors of the anti-apoptotic protein A1, read as caspase activation. hit rate 0.066% among 330,000. caspase activation, % (no concentration beside the values). MEF A1-2A-BIM cells, Caspase-Glo 3/7 luminescence, 3 h; percent of clofoctol response, vehicle zero;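 active means over half of replicate activation scores above 10%, or exactly half above 10 with the replicate mean above 10; inconclusive means replicate mean below 10 yet half the replicates above 10; inactive means over half of replicates below 10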;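 further: wells of about 30 µL received 50 nL stock; many hits fall short of the cut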
Vif A3G – inhibitors of Vif binding to APOBEC3G peptide, primary screen, biochemical, TR-FRET, GST-Vif 1-94, biotin-A3G peptide, dose response retest (AID 1117319); inhibition, %; hits with a dose series show IC50 in µM; hit rate 0.57% among 260,000; TR-FRET GST-Vif / biotin-A3G peptide binding; higher % means a stronger effect; test concentration not given here; strong numbers were not always called active;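 active means above the screen mean plus three standard deviations and confirmed in dose response; inconclusive means results disagree or hit not tested in dose response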;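 further: Vif residues 1-94 fused to GST binding biotinylated APOBEC3G peptide 110-148; 0% = full assay without inhibitor and 100% = GST in place of GST-Vif; retest series ran down from 100 µM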
LANA-H2B inh – blocks KSHV LANA binding to histone H2A/H2B; cell-free LANA-H2A/H2B peptide, fluorescence polarization; inhibition, % (test concentration not listed); hit rate 0.6% among 320,000; AID 2629; in the data active means inhibition mostly above about 10%, no sharp cut-off; inactive means mostly below about 6.7%;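 further: stock transfer was 7.5 nL into about 10 µL; 0% = median of vehicle wells and 100% = median of positive control wells; one replicate is shown; the record names a cut of 25% in any replicate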
Target sequence (Q9QR71 whole entry, looked up): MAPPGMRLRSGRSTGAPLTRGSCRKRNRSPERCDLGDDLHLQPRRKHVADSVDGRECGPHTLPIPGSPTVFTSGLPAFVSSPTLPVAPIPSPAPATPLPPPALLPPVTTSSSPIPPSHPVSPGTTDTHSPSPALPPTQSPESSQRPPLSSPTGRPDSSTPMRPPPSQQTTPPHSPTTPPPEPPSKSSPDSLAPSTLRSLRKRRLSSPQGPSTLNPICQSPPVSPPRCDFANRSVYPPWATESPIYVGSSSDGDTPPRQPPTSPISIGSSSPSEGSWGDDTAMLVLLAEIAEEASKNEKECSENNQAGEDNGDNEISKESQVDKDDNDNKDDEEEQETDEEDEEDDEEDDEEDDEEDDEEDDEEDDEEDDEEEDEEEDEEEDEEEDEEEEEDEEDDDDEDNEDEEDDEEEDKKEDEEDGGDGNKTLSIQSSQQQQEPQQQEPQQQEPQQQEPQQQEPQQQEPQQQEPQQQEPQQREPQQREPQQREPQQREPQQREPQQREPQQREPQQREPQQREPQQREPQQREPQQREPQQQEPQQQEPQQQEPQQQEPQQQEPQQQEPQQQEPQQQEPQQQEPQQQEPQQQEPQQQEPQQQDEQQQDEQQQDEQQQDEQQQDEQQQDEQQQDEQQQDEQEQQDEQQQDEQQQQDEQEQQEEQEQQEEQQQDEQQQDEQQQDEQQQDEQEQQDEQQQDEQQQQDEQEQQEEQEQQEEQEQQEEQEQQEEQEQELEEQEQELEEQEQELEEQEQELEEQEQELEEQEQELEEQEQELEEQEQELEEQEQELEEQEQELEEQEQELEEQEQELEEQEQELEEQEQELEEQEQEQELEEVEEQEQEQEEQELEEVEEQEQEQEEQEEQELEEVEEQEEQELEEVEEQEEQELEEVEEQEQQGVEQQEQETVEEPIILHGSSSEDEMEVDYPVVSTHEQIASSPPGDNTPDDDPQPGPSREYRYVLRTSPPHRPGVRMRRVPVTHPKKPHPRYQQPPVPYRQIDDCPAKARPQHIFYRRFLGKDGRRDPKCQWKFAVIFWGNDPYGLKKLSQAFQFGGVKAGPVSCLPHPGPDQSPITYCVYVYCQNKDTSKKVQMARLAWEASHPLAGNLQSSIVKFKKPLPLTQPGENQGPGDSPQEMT
RanGTP-Imp inh – inhibitors of RanGTP-importin-beta interaction, primary screen, biochemical, FRET, CFP-Ran, YFP-importin-beta, homogeneous | cell-free CFP-Ran/YFP-importin-beta FRET ratio | inhibition, % (concentration not given with the values) | hit rate 1.1% among 300,000 | AID 2216;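 active means most replicates above 15%; inconclusive means exactly half above 15%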;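 further: 0% = DMSO wells and 100% = Ran loaded with GDP instead of GTP; wells of about 40 µL received 100 nL stock; the first replicate is given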
T cruzi inh – T. cruzi replication inhibition. T. cruzi beta-gal in NIH3T3, luminescence, 90 h. inhibition, % (concentration not given with the values). hit rate 1.4% among 300,000. AID 1885;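 active means mean inhibition across valid replicates above about 55%, limit read from the data; inconclusive means mean below that limit but half or more replicates reach it; inactive means mean below it, under half of replicates reach it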;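 further: signal also drops with host cell toxicity which is not excluded here; 0% = plate median of DMSO wells and 100% = zero luminescence signal; higher percent means less beta-gal luminescence so fewer parasites; stock transfer was 50 nL into about 50 µL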
Active calls of the source: *.

For COC(=O)C1N[C@@H]([C@@H](NC(=O)COc2ccccc2)C(=O)Nc2ccc(OC)cc2)SC1(C)C (stereo not given in full) the results were Calb FLC -7, Beta apoptosis 3, AF4-AF9 inh -1.9, Bfl-1 A1 inh -0.4, LANA-H2B inh -2.8, RanGTP-Imp inh -3.4 and T cruzi inh -8.
COc1ccc(C(=O)ON=C2c3ccccc3-c3ccccc32)cc1OC was read as Calb FLC -10, Beta apoptosis 0, AF4-AF9 inh 1.3, Bfl-1 A1 inh 1.0, Vif A3G -8%, LANA-H2B inh -1.1, RanGTP-Imp inh -2.7 and T cruzi inh -10.
Cc1ccc(/C=C/C(=O)N2CCCC(C(N)=O)C2)o1 (stereo not given) was read as Calb FLC -12, Beta apoptosis -7, AF4-AF9 inh -11, Bfl-1 A1 inh -0.1, Vif A3G inconclusive, LANA-H2B inh -0.3, RanGTP-Imp inh 2.7 and T cruzi inh -13.
NC(=O)c1ccc(NC(=O)COC(=O)c2c3c(nc4ccccc24)/C(=C\c2cccs2)CCC3)cc1 was read as Calb FLC 57, Beta apoptosis 60, AF4-AF9 inh 7.1, Bfl-1 A1 inh -0.1, Vif A3G 24%, LANA-H2B inh -1.6, RanGTP-Imp inh 16* and T cruzi inh 37.
O=C(NC1CCCC1)C(c1ccncc1)N(C(=O)Cc1cccs1)c1ccc(F)cc1 (stereo not given) was read as Calb FLC -4, Beta apoptosis 4, AF4-AF9 inh -0.8, Bfl-1 A1 inh 0.2, Vif A3G 5%, LANA-H2B inh -2.1, RanGTP-Imp inh -0.5 and T cruzi inh 8.
For O=C(CP(=O)(O)CC(=O)c1ccccc1)c1ccccc1 the results were Calb FLC -21, Beta apoptosis 2, AF4-AF9 inh 0.8, Bfl-1 A1 inh -0.5, Vif A3G -6%, LANA-H2B inh 2.8, RanGTP-Imp inh -1.7 and T cruzi inh -8.
For CC1CCN(CCc2nc3cc(NC(=O)NC4CCCCC4)ccc3n2C)CC1 the results were Calb FLC 5, Beta apoptosis -2, Bfl-1 A1 inh 0.7, Vif A3G 4%, LANA-H2B inh -1.1, RanGTP-Imp inh -0.1 and T cruzi inh 32.
`NNC(=O)c1ccc(-c2ccccc2F)cc1` gave Calb FLC 2, Beta apoptosis 0, AF4-AF9 inh 0.5, Bfl-1 A1 inh 0.2, Vif A3G 31%, LANA-H2B inh 5.5, RanGTP-Imp inh 4.4 and T cruzi inh 0.
Cc1ccc(NC(=O)c2noc3c2CCCCC3)cc1 was read as Calb FLC -4, Beta apoptosis 4, Bfl-1 A1 inh -3.8, Vif A3G 3%, LANA-H2B inh 8.5*, RanGTP-Imp inh 3.1 and T cruzi inh -2.
`O=C(C#Cc1ccccc1)Nc1cccc(F)c1` gave Calb FLC -1, Beta apoptosis 97*, AF4-AF9 inh -11, Bfl-1 A1 inh -4.5, LANA-H2B inh -3.7, RanGTP-Imp inh -1.9 and T cruzi inh 20.
For O=C(NC1CCCCC1)C(c1ccncc1)N(C(=O)Cc1cccs1)c1ccccc1 (stereo not given) the results were Calb FLC -20, Beta apoptosis -4, AF4-AF9 inh -1.7, Bfl-1 A1 inh -0.5, Vif A3G -4%, LANA-H2B inh 18, RanGTP-Imp inh -0.2 and T cruzi inh -16.
`O=C1CCCN1CN(C(=O)c1ccccc1)c1ccccc1` gave Calb FLC -1, Beta apoptosis -5, AF4-AF9 inh 0.5, Bfl-1 A1 inh 0.8, Vif A3G -2%, LANA-H2B inh -7.0, RanGTP-Imp inh -3.8 and T cruzi inh 9.
`CCCN1CCN(CCCNC(=O)CCNC(=O)Cn2ccc3ccccc3c2=O)CC1` gave Calb FLC 0, Beta apoptosis -1, Bfl-1 A1 inh 0.7, Vif A3G 1%, LANA-H2B inh 3.1, RanGTP-Imp inh 5.8 and T cruzi inh -10.
For CCC(CC)C(=O)N1CC(=O)Nc2ccc(F)cc2C1c1ccc(F)cc1 (stereo not given) the results were Calb FLC 18, Beta apoptosis -4, AF4-AF9 inh -8.6, Bfl-1 A1 inh 0.5, LANA-H2B inh -0.3, RanGTP-Imp inh -3.1 and T cruzi inh 9.
CCCCCCSC1=C(C#N)C(c2ccc(O)cc2)CC(=O)N1 (stereo not given) was read as Calb FLC 19, Beta apoptosis -11, Bfl-1 A1 inh 0.5, Vif A3G -2%, LANA-H2B inh -1.0, RanGTP-Imp inh 2.8 and T cruzi inh 0.
Screening N#CC(Sc1ccccn1)c1ccc(Cl)cc1 (stereo not given) returned Calb FLC -13, Beta apoptosis -10, AF4-AF9 inh 4.0, Bfl-1 A1 inh -1.0, Vif A3G -9%, LANA-H2B inh 0.7, RanGTP-Imp inh 0.1 and T cruzi inh 12.
For CC(C)(C)c1ccccc1NC(=O)CN1C(=O)NC2(CCCC2)C1=O the results were Calb FLC -1, Beta apoptosis 1, AF4-AF9 inh -1.5, Bfl-1 A1 inh -0.7, LANA-H2B inh -1.3, RanGTP-Imp inh -2.0 and T cruzi inh -14.
For Cc1ccc(-n2c3c(cc(C(=O)NCC(=O)c4ccccc4)c2=O)C(=O)CCC3)cc1 the results were Beta apoptosis -7, AF4-AF9 inh 0.1, Bfl-1 A1 inh 1.3, LANA-H2B inh -2.4 and T cruzi inh 7.
`O=C(c1ccc(-n2cnnn2)cc1)N1CCOCC1` gave Calb FLC 3, Beta apoptosis 2, Bfl-1 A1 inh 0.3, Vif A3G >100µM*, LANA-H2B inh 0.8, RanGTP-Imp inh 4.6 and T cruzi inh 0.
Screening CCOc1cc2[nH]c(=S)n(C3CCN(Cc4ccccc4)CC3)c(=O)c2cc1OCC returned Calb FLC -3, Beta apoptosis 2, AF4-AF9 inh -0.3, Bfl-1 A1 inh -0.5, Vif A3G -11%, RanGTP-Imp inh -0.4 and T cruzi inh 11.
For CCN(CC)S(=O)(=O)c1cc(NC(=O)CSc2n[nH]c(N)n2)ccc1C the results were Beta apoptosis -1, AF4-AF9 inh 1.0, Bfl-1 A1 inh 2.1, Vif A3G -15% and LANA-H2B inh 2.0.
Screening OCCN1CCN(CC(O)COCCOc2ccc(Br)cc2)CC1 (stereo not given) returned Calb FLC -4, Beta apoptosis -7, AF4-AF9 inh 7.4, Bfl-1 A1 inh -0.2, Vif A3G 22%, LANA-H2B inh 2.9, RanGTP-Imp inh -3.5 and T cruzi inh -22.
C/C(=N\NC(N)=O)c1c(F)cccc1F was read as Calb FLC 2, Beta apoptosis 0, AF4-AF9 inh 1.1, Bfl-1 A1 inh 0.1, LANA-H2B inh -3.2, RanGTP-Imp inh 0.2 and T cruzi inh -7.
Cc1cc(NC(=O)COC(=O)CNS(=O)(=O)c2ccc(C)c(C)c2)no1 was read as Calb FLC 20, Beta apoptosis 1, AF4-AF9 inh -0.7, Bfl-1 A1 inh 0.2, Vif A3G 1%, LANA-H2B inh -2.5, RanGTP-Imp inh -2.0 and T cruzi inh 12.
Screening c1cc(SC2CCCCC2)cc(-c2nc3cnccn3c2NC2CCCCC2)c1 returned Beta apoptosis -2, AF4-AF9 inh -20, Bfl-1 A1 inh 1.0 and LANA-H2B inh 2.4.
`Cc1cc(C)c(S(=O)(=O)c2cccc(C(F)(F)F)c2)c(=O)[nH]1` gave Calb FLC -10, Beta apoptosis -11, AF4-AF9 inh -0.6, Bfl-1 A1 inh 0.7, Vif A3G -3%, LANA-H2B inh 2.6, RanGTP-Imp inh 0.6 and T cruzi inh 6.
`C=CCNC(=O)c1c(CSc2ccc(Cl)cc2)noc1C(=O)NCc1ccccc1` gave Calb FLC -1, Beta apoptosis 2, AF4-AF9 inh 0.8, Bfl-1 A1 inh -0.3, LANA-H2B inh 1.7, RanGTP-Imp inh -0.2 and T cruzi inh 24.
For NC(=O)CSc1nnc(COc2cccc3ccccc23)o1 the results were Calb FLC -2, AF4-AF9 inh 0.6, Bfl-1 A1 inh 0.5, LANA-H2B inh -0.2, RanGTP-Imp inh -3.0 and T cruzi inh -2.
Screening OCC#CCSc1nnc(-c2ccncc2)o1 returned Calb FLC -8, Beta apoptosis -7, Bfl-1 A1 inh 0.2, Vif A3G 30%, LANA-H2B inh -0.6, RanGTP-Imp inh 3.1 and T cruzi inh -7.
`COc1ccc(-n2ncc3c2CC(C)(C)CC3NC(=O)CCn2cncn2)cc1` (stereo not given) gave Calb FLC 32, Beta apoptosis -11, AF4-AF9 inh -1.6, Bfl-1 A1 inh 0.5, LANA-H2B inh -16, RanGTP-Imp inh inconclusive and T cruzi inh -2.
O=Cc1cccc2ccc3cccc(C(=O)O)c3c12 was read as Calb FLC 21, Beta apoptosis -3, AF4-AF9 inh 1.8, Bfl-1 A1 inh -0.3, LANA-H2B inh 0.1, RanGTP-Imp inh 1.9 and T cruzi inh -9.
Screening COC(=O)c1cc(N=Cc2c(O)c3ccccc3oc2=O)cc(C(=O)OC)c1 returned Calb FLC -18, Beta apoptosis -7, Bfl-1 A1 inh -0.3, LANA-H2B inh -0.9, RanGTP-Imp inh 7.7 and T cruzi inh -7.
For Nn1c(SCC(=O)NCC2CCCO2)nnc1-c1ccco1 (stereo not given) the results were Beta apoptosis -4, AF4-AF9 inh 1.2, Bfl-1 A1 inh 1.6 and LANA-H2B inh 1.0.
`NC(=O)c1cccnc1` gave Beta apoptosis 15, AF4-AF9 inh -0.8, Bfl-1 A1 inh 0.2, Vif A3G inconclusive, LANA-H2B inh 3.3, RanGTP-Imp inh 1.2 and T cruzi inh -4.
For COCCCNC(=O)c1ccc([N+](=O)[O-])c(Cl)c1 the results were Calb FLC 9, Beta apoptosis -3, Bfl-1 A1 inh 0.6, Vif A3G -1%, LANA-H2B inh -0.3, RanGTP-Imp inh -1.4 and T cruzi inh -4.
Screening CCOc1ccc(C(C)=O)cc1CSc1nnnn1-c1ccc(O)cc1 returned Calb FLC 19, Beta apoptosis 2, AF4-AF9 inh 0.7, Bfl-1 A1 inh 0.4, Vif A3G -1%, LANA-H2B inh 3.3, RanGTP-Imp inh 1.0 and T cruzi inh -8.
Screening O=C(NCCN1CCCCC1)Nc1ccc(F)cc1 returned Calb FLC -11, Beta apoptosis -7, AF4-AF9 inh 0.3, Bfl-1 A1 inh 0.3, LANA-H2B inh -0.1, RanGTP-Imp inh 0.6 and T cruzi inh 0.
`CCOC(=O)C1CCN(Cc2cn(C)nc2-c2ccc(Oc3ccccc3)cc2)CC1` gave Calb FLC -19, Beta apoptosis -14, AF4-AF9 inh 1.3, Bfl-1 A1 inh 0.3, Vif A3G 23%, LANA-H2B inh 12, RanGTP-Imp inh 1.2 and T cruzi inh 8.
Screening Cc1ccc(S(=O)(=O)NCC(=O)NCc2ccncc2)cc1 returned Calb FLC -3, Beta apoptosis -4, Bfl-1 A1 inh 0.2, Vif A3G 3%, LANA-H2B inh 3.2, RanGTP-Imp inh inconclusive and T cruzi inh -15.
Screening O=C(CSc1nnc(-c2ccc(O)cc2)n1-c1ccccc1)CC(=O)Nc1ccccc1 returned Calb FLC 11, Beta apoptosis 4, Bfl-1 A1 inh 0.3, LANA-H2B inh 0.3, RanGTP-Imp inh -2.9 and T cruzi inh -8.
